Screening data (PubChem)
Mtb bLac sens: beta-lactam sensitization of Mtb H37Rv. inhibition, % at 25 µM. AID 434955. 330,000 compounds, 0.27% hits. M. tuberculosis H37Rv growth with meropenem, percent inhibition; hits of this screen are not shown here;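 active = about 74% or more and at least 40 points above the plate without the antibiotic, then above 30% in a dose series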;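 also: growth measured after seven days incubation then overnight dye step; 0% = bacteria only wells and 100% = bacteria with antibiotic; twin plates without the antibiotic show which effects depend on it; some results filed as inactive read as strong as hits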
Numbers without * were called inactive. Only part of the results is shown (hit frequency here may not be typical).

For CCN(C(=O)CSc1nc(C)nc2sc3c(c12)CCC3)C1CCS(=O)(=O)C1 (stereo not given) the results were Mtb bLac sens -1.
Screening COc1cc(OC)c(OC)cc1C=O returned Mtb bLac sens -1.
O=C(CN1CCOCC1)Nc1ccc(Cl)c(Cl)c1 was read as Mtb bLac sens -21.
`COCCN(C(=O)COc1ccccc1C#N)c1c(N)n(Cc2ccccc2)c(=O)[nH]c1=O` gave Mtb bLac sens 3.
Cn1c(N)c(C(=O)COC(=O)/C=C/c2cccc(Cl)c2)c(=O)n(C)c1=O was read as Mtb bLac sens -4.
`O=C(CSc1ccccc1F)NCCN1C(=O)CSC1=O` gave Mtb bLac sens 4.
Screening Cc1nn(C)c(C)c1NC(=O)COc1ccccc1C#N returned Mtb bLac sens -3.
`CCCC(=O)Nc1ncnc2c1ncn2[C@@H]1O[C@@H]2OP(=O)(O)OC[C@H]2[C@H]1OC(=O)CCC` gave Mtb bLac sens -5.
For Cc1ccc(S(=O)(=O)N(C)C)cc1NC(=O)COC(=O)CN1C(=O)c2ccccc2C1=O the results were Mtb bLac sens -4.
Screening C[N+](C)(C)CCOC(=O)CBr returned Mtb bLac sens 2.

The last 5 entries of the part above are carried over, then new ones follow:
`O=C(CSc1ccccc1F)NCCN1C(=O)CSC1=O` gave Mtb bLac sens 4.
Screening Cc1nn(C)c(C)c1NC(=O)COc1ccccc1C#N returned Mtb bLac sens -3.
`CCCC(=O)Nc1ncnc2c1ncn2[C@@H]1O[C@@H]2OP(=O)(O)OC[C@H]2[C@H]1OC(=O)CCC` gave Mtb bLac sens -5.
For Cc1ccc(S(=O)(=O)N(C)C)cc1NC(=O)COC(=O)CN1C(=O)c2ccccc2C1=O the results were Mtb bLac sens -4.
Screening C[N+](C)(C)CCOC(=O)CBr returned Mtb bLac sens 2.
COc1ccccc1C(=O)NC(CCSC)C(=O)NC1CC1 (stereo not given) was read as Mtb bLac sens -6.
`CSc1nc(C)c(C(=O)C[n+]2ccccc2)cc1C#N` gave Mtb bLac sens -9.
Screening CCN(CC)C(=O)OCCc1cc2ccccc2c(=O)o1 returned Mtb bLac sens -4.
Screening NS(=O)(=O)c1ccc(CCNC(=O)CCc2ccccc2)cc1 returned Mtb bLac sens -8.
`Cc1ccc(C)c(S(=O)(=O)N2CCN(C(=O)/C=C/c3ccco3)CC2)c1` gave Mtb bLac sens 0.
CN(CC(=O)Nc1ccccc1Br)C(=O)c1ccccc1OCc1ccc(F)cc1 was read as Mtb bLac sens -3.
Screening Cn1cncc1C#Cc1ccc2cc(C3(O)CCCCC3)oc(=O)c2c1 returned Mtb bLac sens 0.
O=C(NCCC(=O)N1CCN(c2ccccn2)CC1)c1ccc(Cl)cc1 was read as Mtb bLac sens 4.
COc1cccc(-c2nc(N3CCCCC3)c3ccccc3n2)c1O was read as Mtb bLac sens -1.
Screening COCCNC(=O)CN(Cc1ccccc1)C(=O)CCC(=O)Nc1nccs1 returned Mtb bLac sens -4.
`COc1ccc(CN(C(=O)CN2C(=O)NC3(CCC(C)CC3)C2=O)C(C)Cc2cccs2)cc1` (stereo not given) gave Mtb bLac sens 4.
For CCOC(=O)c1ccccc1NC(=O)Cc1ccc(S(=O)(=O)N2CCCC2)s1 the results were Mtb bLac sens 2.
Cc1ccc(/C=C/C(=O)Nc2cc(S(=O)(=O)N3CCOCC3)ccc2N2CCOCC2)cc1 was read as Mtb bLac sens -3.
`N#Cc1ccsc1NC(=O)COC(=O)c1ccc(Br)o1` gave Mtb bLac sens -1.
Screening Cc1cc(C(=O)O[C@H]2[C@H](Cc3ccccc3)NS(=O)(=O)[C@H]3C[C@@H]4C=C[C@]23O4)ccc1[N+](=O)[O-] returned Mtb bLac sens -5.
`COc1ccccc1CNC(=O)c1cccc(S(=O)(=O)N(C)c2ccccc2)c1` gave Mtb bLac sens -4.
Screening CCC(C)Sc1ccc(-c2nc3ccccn3c2NCc2ccccc2)cc1OC (stereo not given) returned Mtb bLac sens 95.
`CN(CC(=O)Nc1ccccc1Br)C(=O)COc1ccc2ccccc2c1` gave Mtb bLac sens -3.
`O=C(OCc1csc(-c2ccccc2)n1)C1=NN(c2ccccc2)C(=O)CC1` gave Mtb bLac sens 9.
CC(=O)Nc1sc(C)c(C)c1C(=O)OCC(=O)N(Cc1ccccc1)C(C)C was read as Mtb bLac sens 0.

Reprinted from the part before: 6 entries, then new ones.
Screening Cc1cc(C(=O)O[C@H]2[C@H](Cc3ccccc3)NS(=O)(=O)[C@H]3C[C@@H]4C=C[C@]23O4)ccc1[N+](=O)[O-] returned Mtb bLac sens -5.
`COc1ccccc1CNC(=O)c1cccc(S(=O)(=O)N(C)c2ccccc2)c1` gave Mtb bLac sens -4.
Screening CCC(C)Sc1ccc(-c2nc3ccccn3c2NCc2ccccc2)cc1OC (stereo not given) returned Mtb bLac sens 95.
`CN(CC(=O)Nc1ccccc1Br)C(=O)COc1ccc2ccccc2c1` gave Mtb bLac sens -3.
`O=C(OCc1csc(-c2ccccc2)n1)C1=NN(c2ccccc2)C(=O)CC1` gave Mtb bLac sens 9.
CC(=O)Nc1sc(C)c(C)c1C(=O)OCC(=O)N(Cc1ccccc1)C(C)C was read as Mtb bLac sens 0.
`CCC[C@@H](CN1CCC[C@H]1CN1C(N)=NC[C@H]1CC(C)C)N1C[C@@H](Cc2ccccc2)N(CCc2ccc(Cl)c(Cl)c2)C1=N` gave Mtb bLac sens 100.
`CCCCn1c(N)c(N(C)C(=O)c2ccc(Br)o2)c(=O)[nH]c1=O` gave Mtb bLac sens -1.
`Cc1ccc(OCC(=O)N2CCC(Cc3ccccc3)CC2)c([N+](=O)[O-])n1` gave Mtb bLac sens 3.
`Cc1ccc(N(CC(=O)NC2CCCC2)C(=O)CCC(=O)Nc2ccccn2)cc1C` gave Mtb bLac sens -1.
For O=C(CN1C(=O)NC2(CCCCCCC2)C1=O)NCc1ccccc1Cl the results were Mtb bLac sens -1.
For CNC[C@H]1Oc2c(NS(=O)(=O)c3ccc(OC)cc3)cccc2C(=O)N([C@H](C)CO)C[C@@H]1C the results were Mtb bLac sens -2.
For Cc1sc2ncnc(SCC(=O)NCC3CCCO3)c2c1C (stereo not given) the results were Mtb bLac sens -1.
COc1cccc(NC(=O)c2cccc(C(=O)Nc3cccc(OC)c3)c2)c1 was read as Mtb bLac sens -2.
`Cc1ccc(NC(=O)C(c2ccccc2)N2CCN(CC(=O)N3CCOCC3)CC2)cc1` (stereo not given) gave Mtb bLac sens 1.
`COc1ccc(S(=O)(=O)Nc2ccc3c(c2)C(=O)N([C@H](C)CO)C[C@H](C)[C@@H](CN(C)C(=O)Nc2ccc4c(c2)OCO4)O3)cc1` gave Mtb bLac sens 3.
`C[C@@]12CCC3[C@@](CCC4[C@@]3(C)CCC[C@@]4(C)C(=O)O)(CC1=O)C2` (stereo not given in full) gave Mtb bLac sens 19.
Screening O=C(O)C1CC=CCC1C(=O)N1CCN(c2nc(-c3ccccc3Cl)c3cc(Br)ccc3n2)CC1 (stereo not given) returned Mtb bLac sens 93.
For O=C(c1cccc(S(=O)(=O)Nc2ccccc2Cl)c1)N1CCN(c2ccccc2O)CC1 the results were Mtb bLac sens -9.
`Cc1ccc(C(=O)OCC(=O)Nc2cccc(S(=O)(=O)N3CCCCC3)c2)o1` gave Mtb bLac sens -9.
Screening COc1ccc(C2(c3ccc(OC)cc3)NC(=O)N(CC(=O)NC3(C#N)CCCCC3)C2=O)cc1 returned Mtb bLac sens 4.
`NCc1ccccc1` gave Mtb bLac sens -2.
For O=C1CCCC/C=C\C[C@H](CC(=O)N(CCO)Cc2ccccc2)C(=O)N[C@@H](c2ccccc2)CO1 the results were Mtb bLac sens 0.
`NC1=NC(=O)C(Cc2ccc(F)cc2)S1` (stereo not given) gave Mtb bLac sens -8.
Cc1cc(C(=O)Nc2cccc(S(=O)(=O)N3CCCC3)c2)c2ccccc2n1 was read as Mtb bLac sens 2.
For CCN(CC(=O)Nc1cc(Cl)ccc1C)C(=O)c1ccc(N2CCCC2=O)cc1 the results were Mtb bLac sens -11.
Screening CCOC(=O)[C@H]1[C@H]2COc3cc(OC)ccc3[C@@H]2N2C(=O)CN(Cc3ccccc3)C(=O)[C@@]12C returned Mtb bLac sens 2.
Screening CC1(C)NC(=O)N(c2ccc([N+](=O)[O-])c(C(F)(F)F)c2)C1=O returned Mtb bLac sens 0.
`O=S(=O)(Nc1ccc(-n2cnnn2)cc1)c1cccs1` gave Mtb bLac sens -2.
Screening O=C(O)C1CCN(C(=O)CSc2nnc3ccccn23)CC1 returned Mtb bLac sens -1.
`CCN(C(=O)CO/N=C/c1ccc(OC)cc1OC)c1c(N)n(Cc2ccccc2)c(=O)[nH]c1=O` gave Mtb bLac sens -4.
COc1ccc(CNC(=O)CN2C(=O)NC3(CCCCCC3)C2=O)cc1 was read as Mtb bLac sens -12.
`CC(C)CC(=O)c1c(O)c(C=O)c(O)c2c1O[C@@]1(C)[C@@H](C2)C[C@H]2C[C@@H]1C2(C)C` gave Mtb bLac sens -1.
Screening Cc1ccc(C)c(N(CC(=O)NC2CCCCC2)C(=O)c2snc(C(N)=O)c2N)c1 returned Mtb bLac sens 5.
`O=C(COC(=O)c1ccc(Br)o1)NC12CC3CC(CC(C3)C1)C2` gave Mtb bLac sens 63.
`Cc1ccc(C(=O)N/N=C/c2cc(Br)ccc2O)cn1` gave Mtb bLac sens 2.
Screening Cc1ccc(CONC(=O)c2ccc(Cl)cc2)cc1 returned Mtb bLac sens 12.
`Cc1ccccc1NC(=O)COC(=O)c1cc(C)n(C2CC2)c1C` gave Mtb bLac sens 2.
For O=C(OCCCc1cc2ccccc2c(=O)o1)c1ccc2c(c1)OCO2 the results were Mtb bLac sens -10.
COC(=O)C1=C(c2cccc(C#N)c2)C[C@@H]2CC[C@H]1N2C(=O)NCc1cc(C)oc1C(F)(F)F was read as Mtb bLac sens 8.
COc1cccc(NC(=O)C2CC(=O)N(Cc3ccco3)C2)c1 (stereo not given) was read as Mtb bLac sens -10.
For COc1ccc(NC(=O)CCCNC(=O)c2ccc(Cl)cc2)c(OC)c1 the results were Mtb bLac sens -5.
`NC(=O)c1ccc(NC(=O)COC(=O)c2ccc(Cl)nc2)cc1` gave Mtb bLac sens -7.
CC1CC(C)(C)CC2(C1)NC(=O)N(CC(=O)N(C)Cc1nc3ccccc3c(=O)[nH]1)C2=O (stereo not given) was read as Mtb bLac sens -4.
For O=C(NCc1cccnc1)c1cccc(S(=O)(=O)Nc2cccc(Cl)c2)c1 the results were Mtb bLac sens -5.
O=C(O)c1cccc2sc3cc(Cl)ccc3c(=O)c12 was read as Mtb bLac sens -12.

Overlap with the part before: 3 compounds, then new ones.
CC1CC(C)(C)CC2(C1)NC(=O)N(CC(=O)N(C)Cc1nc3ccccc3c(=O)[nH]1)C2=O (stereo not given) was read as Mtb bLac sens -4.
For O=C(NCc1cccnc1)c1cccc(S(=O)(=O)Nc2cccc(Cl)c2)c1 the results were Mtb bLac sens -5.
O=C(O)c1cccc2sc3cc(Cl)ccc3c(=O)c12 was read as Mtb bLac sens -12.
Screening CCC(c1nnc(SCC(=O)Nc2cc(C)on2)o1)N(C)C (stereo not given) returned Mtb bLac sens -5.
For CC(=O)Nc1ccc(S(=O)(=O)Nc2ccccc2N2CCOCC2)cc1 the results were Mtb bLac sens 10.
For O=C(O)c1cccnc1C(=O)O the results were Mtb bLac sens -8.
Screening Cn1c(SCC(=O)NCC2COc3ccccc3O2)nnc1C(F)(F)F (stereo not given) returned Mtb bLac sens 4.
`O=C(O)/C=C1\CCCc2ccccc2C1O` (stereo not given) gave Mtb bLac sens -7.
Screening Cc1cc(NC(=O)CSc2ncc(C(F)(F)F)cc2Cl)no1 returned Mtb bLac sens -3.
For CCN(CC(=O)NCc1ccc(F)cc1)C(=O)CN1CCN(c2cc(Cl)ccc2C)CC1 the results were Mtb bLac sens 4.
`O=C(NCC(O)c1ccc([N+](=O)[O-])cc1)C(c1ccccc1)c1ccccc1` (stereo not given) gave Mtb bLac sens -2.
`O=C(COc1ccccc1Br)N1CCNC1=O` gave Mtb bLac sens -3.
Screening Cc1cccc2nc(C(=O)Nc3cccc(C(=O)NC4CC4)c3)cn12 returned Mtb bLac sens 1.
For CCN(C[C@H]1N[C@@](Cc2ccccc2)(C(=O)OC)[C@H]2C(=O)N(C)C(=O)[C@@H]12)C(=O)NC(C)C the results were Mtb bLac sens 2.
For Cc1ccc(C(=O)NCC(=O)OCn2nnc3ccccc3c2=O)cc1 the results were Mtb bLac sens -9.
`O=C(OCc1ccc(F)cc1)c1cccnc1Cl` gave Mtb bLac sens 0.
For O=C(NCc1ccco1)/C(=C/c1ccc(F)cc1)NC(=O)c1ccccc1 the results were Mtb bLac sens 7.
CCN(c1cccc2ccccc12)S(=O)(=O)c1cccs1 was read as Mtb bLac sens 4.
Screening OC[C@H]1OC(O)[C@H](O)[C@@H]1O (stereo not given in full) returned Mtb bLac sens -2.
`CCOP(=O)(OCC)c1ccc2ccc3ccccc3c(=O)c2c1` gave Mtb bLac sens 4.
For O=C(CSc1nnnn1-c1ccc(Cl)cc1)N1CCNC1=O the results were Mtb bLac sens 0.
For N#Cc1ccccc1OCC(=O)N1N=C(c2cccs2)CC1c1ccco1 (stereo not given) the results were Mtb bLac sens -4.
CSCCC(NC(=O)c1ccco1)C(=O)NNC(=O)c1n[nH]c(=O)c2ccccc12 (stereo not given) was read as Mtb bLac sens -2.
For COc1ccc(CNC(=O)[C@H](C)NC(=O)C2CCN(C(=O)[C@H](CCSC)NC(=O)OC(C)(C)C)CC2)cc1 the results were Mtb bLac sens -4.
For O=C(Cc1ccc2c(c1)OCO2)NN=Cc1ccc([N+](=O)[O-])o1 the results were Mtb bLac sens 100.
`Cc1nnc(SCC(=O)NNC(=O)c2ccc(F)cc2)n1Cc1ccccc1` gave Mtb bLac sens -1.
For Cc1c(Cl)cnc(NC(=O)COC(=O)c2cccs2)c1Cl the results were Mtb bLac sens 0.
For Cc1nn(CC(=O)NC2(C#N)CCCCC2)c(C)c1[N+](=O)[O-] the results were Mtb bLac sens -4.
Screening Cc1ccc(C(=O)Nc2ccc(C(=O)O)cc2NC(=O)c2ccc(C)cc2)cc1 returned Mtb bLac sens 16.
Screening CCCN(CC(=O)Nc1ccccc1OC)C(=O)c1ccc2ncsc2c1 returned Mtb bLac sens -7.
For Cc1ccccc1N1C(=O)C2CCCN2C1=S (stereo not given) the results were Mtb bLac sens 3.
